MT1-MMP act inh – inhibitors of human MT1-MMP activation; P50281; HT1080 RFP-PRO-GFP cells, GFP/RFP ratio fluorescence, overnight; percent of plate control window, DMSO zero; GFP/RFP ratio change, % at 20 µM; 360,000 compounds, 0.061% hits; AID 651647;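 active = GFP/RFP ratio change of at least 30% with cell ATP level not reduced by more than half and red fluorescence within 50% of control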; also: strong numbers were not always called active
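Test system: HT1080 RFP-PRO-GFP cells; Benchmarks: DMSO and RFP-L50D-GFP cell wells; Timing: cells overnight before dosing, compound overnight, 37 °C, 5% CO2; Compound: one 20 µM compound dose with 1% DMSO; Read-out: GFP/RFP fluorescence ratio.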
eIF4H FP inh – inhibitors of RNA binding by human eIF4H | eIF4H fluorescence polarization binding assay | 290,000 compounds, 0.94% hits | AID 2012 | inhibition, % at 35 µM;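 active = 50% or more with normal probe brightness, or confirmed in later tests; inconclusive = above 50% with abnormal brightness, or retests that disagree; inactive = below 50% or failed in later tests; about a fifth of its hits are not listed in these tables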;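 also: calls also rest on retests at 20 µM and on dose response follow-up; 0% = protein and probe with vehicle and 100% = probe without protein; strong numbers were not always called active; many hits fall short of the cut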
Rce1 inhib – inhibitors of yeast Ras-converting enzyme; Q03530; yeast membranes, quenched prenylated peptide cleavage fluorescence; calls only; 290,000 compounds, 0.27% hits;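 active = fall in fluorescence gain of 50% or more versus controls, with final raw signal at or below 3038400; inconclusive = same 50% fall but final raw signal above 3038400; inactive = fall in fluorescence gain under 50%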;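 also: plate controls were neutral control wells for no effect and wells lacking membranes for full effect; tested at 10 µM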
Target sequence (Q03530 whole entry, looked up): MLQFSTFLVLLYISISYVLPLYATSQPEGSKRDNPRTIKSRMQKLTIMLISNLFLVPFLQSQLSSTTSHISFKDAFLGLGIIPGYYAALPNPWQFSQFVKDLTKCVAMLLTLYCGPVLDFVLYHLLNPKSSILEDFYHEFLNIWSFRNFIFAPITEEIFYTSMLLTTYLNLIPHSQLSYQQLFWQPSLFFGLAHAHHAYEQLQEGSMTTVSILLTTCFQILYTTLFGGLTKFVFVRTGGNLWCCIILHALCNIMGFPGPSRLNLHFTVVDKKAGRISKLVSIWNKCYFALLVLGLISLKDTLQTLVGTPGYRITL
PABP polyA inh – blocks human PABP binding to poly(A) RNA; fluorescence polarization; P11940; 290,000 compounds, 1% hits; inhibition, % at 35 µM;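 active = 50% or more with normal probe brightness, or confirmed in later tests; inconclusive = above 50% with abnormal brightness, or retests that disagree; inactive = below 50% or failed in later tests; about a fifth of its hits are not listed in these tables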;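 also: calls also rest on retests at 20 µM and on dose response follow-up; controls were probe without protein and protein plus probe with vehicle; some compounds called inactive have numbers as strong as hits; many hits fall short of the cut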
Target sequence (P11940 whole entry, looked up): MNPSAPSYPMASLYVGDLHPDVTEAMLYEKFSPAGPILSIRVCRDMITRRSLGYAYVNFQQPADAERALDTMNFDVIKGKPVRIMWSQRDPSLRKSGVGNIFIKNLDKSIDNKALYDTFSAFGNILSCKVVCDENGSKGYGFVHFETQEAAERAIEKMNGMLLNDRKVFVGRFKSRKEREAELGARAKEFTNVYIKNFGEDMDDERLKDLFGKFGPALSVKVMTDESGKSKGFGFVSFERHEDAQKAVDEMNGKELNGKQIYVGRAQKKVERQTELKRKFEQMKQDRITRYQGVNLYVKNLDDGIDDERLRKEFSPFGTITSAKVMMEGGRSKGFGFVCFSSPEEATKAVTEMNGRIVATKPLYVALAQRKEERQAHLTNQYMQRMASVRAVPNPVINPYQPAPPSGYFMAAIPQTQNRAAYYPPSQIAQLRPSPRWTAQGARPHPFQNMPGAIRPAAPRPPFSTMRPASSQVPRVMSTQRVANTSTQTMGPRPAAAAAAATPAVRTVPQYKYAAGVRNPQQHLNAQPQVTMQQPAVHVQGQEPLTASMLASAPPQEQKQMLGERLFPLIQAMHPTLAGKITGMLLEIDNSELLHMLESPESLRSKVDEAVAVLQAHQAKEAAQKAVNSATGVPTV
Yeast UUG start – modulators of start codon recognition fidelity in yeast; 350,000 compounds, 0.13% hits; activity score, % at 18.7 µM; S. cerevisiae UUG-firefly luciferase reporter, luminescence/redox ratio;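 active = replicate mean at a twofold rise or more, about +100% in these data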;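 also: firefly luciferase made from a UUG start codon reports start codon fidelity; reporter light over untreated wells divided by growth signal over untreated wells; some hits fall short of that in this replicate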
CSC inhib – blocks cancer stem cells; cancer stem cell-like cells viability, luminescence; inhibition, % at 7.5 µM; 300,000 compounds, 1.1% hits;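 active = mean at 75% or more and at least half the replicates too; inconclusive = mean and replicates disagree; tested in HMLE shEcad cells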;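 also: 0% = median of negative and 100% = median of positive control wells; the first replicate is given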
Env fusion inh – HIV envelope-mediated fusion inhibition; HeLa-JRFL Env/CEM21 cell fusion, luciferase; inhibition, % at 12.3 µM; 360,000 compounds, 1.1% hits;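 active = mean replicate inhibition score of at least 50 and every replicate individually at or above 50; inconclusive = only one of the two criteria met; inactive = mean below 50 and not all replicates reaching 50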;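 also: 0% = plate neutral controls and 100% = maraviroc near 300 nM; one replicate is shown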
MT1-MMP act inh RFP – also measured in MT1-MMP act inh; calls as there; RFP signal change, %; measured here: RFP expression control read;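 0 = vehicle wells; hits needed this value within 50% of zero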
An asterisk follows results filed as active; i = inactive; ? = inconclusive; nt = no result given; & = joins results of further samples; [ ] = another dose, or the depositor's remark.

mol	MT1-MMP act inh	MT1-MMP act inh RFP	eIF4H FP inh	Rce1 inhib	PABP polyA inh	Yeast UUG start	CSC inhib	Env fusion inh
Cc1ccc(CCNC(=O)c2cc(S(=O)(=O)N3CCOCC3)cn2C)cc1	0	-4	-16	i	-8	-1	-1	14
CN(C)CCN(C(=O)c1ccc2ccccc2c1)c1nc2cc3c(cc2s1)OCO3	6	0	nt	nt	nt	-11	nt	-9
O=C(Cc1ccc(-c2ccccc2)cc1)NCCN1CCOCC1	4	3	4	i	4	-18	-11	-54
C=CCn1c(CSCc2ccccc2)nnc1SCC(=O)N1CCN(c2ccccc2)CC1	nt	nt	3	i	11	nt	nt	-3
CCCCS(=O)CC(O)COc1ccc(C(C)(C)C)cc1 (stereo not given)	11	4	2	i	-10	-11	-9	10
C/C(N)=C(/C#N)C(=O)COc1ncnc2ccccc12	-2	-4	nt	i	nt	0	-16	-50
CCOc1ccc(NS(=O)(=O)c2ccc(C(=O)N3CCCCCC3)cc2)cc1	-1	-13	nt	i	nt	-6	-3	nt
O=C(CSc1nc2cc(Cl)ccc2c(=O)n1Cc1ccco1)Nc1ccc(S(=O)(=O)N2CCOCC2)cc1	2	2	3	i	3	nt	4	23
O=C(CCS(=O)(=O)c1ccccc1)N1CCN(c2ccccc2)CC1	2	4	-7	i	0	-16	10	-25
Cc1cccc(C)c1NC(=O)CN(C)C(=O)c1ccc(COc2ccccc2)cc1	-1	-1	12	i	-2	-30	-10	11
CCC(C)(C)n1nnnc1C(c1ccc(Cl)cc1)N1CCN(C)CC1 (stereo not given)	2	-1	-17	i	14	3	-6	nt
CC(=O)c1ccc(NC(=O)c2ccc(S(=O)(=O)c3ccccc3)cc2)cc1	7	-6	-10	i	10	nt	-5	2
CCN(CC)c1ccc(/C=N/N2CCN(Cc3ccccc3Cl)CC2)cc1	-1	0	-7	i	4	-7	9	24
Cn1nc(NC(=O)CC23CC4CC(CC(C4)C2)C3)c2c(F)cccc21	-4	-3	-20	i	-1	nt	-19	2
CCCc1nc2nc(C)c(NS(=O)(=O)c3ccc4c(c3)CCCC4)c(=O)n2[nH]1	0	1	6	nt	0	1	-12	-11
COC(=O)c1ccc(C(=O)N=c2sccn2C)cc1	0	0	3	i	2	-14	11	-53
COc1ccc(CNC(=O)C[C@@H]2CC[C@@H](NS(=O)(=O)c3cccc(OC)c3)[C@@H](CO)O2)cc1	0	-3	nt	nt	nt	-4	nt	14[16.7 µM]
Cc1cc(N2C(=O)C(O)=C(C(=O)c3ccc(C)o3)C2c2ccc(OCc3ccccc3)cc2)no1 (stereo not given)	-4	3	32	i	9	-31	-25	-8
O=C(NC(=S)Nc1ccccc1N1CCOCC1)c1ccc(-c2cccc(Cl)c2)o1	-6	-1	2	i	7	-2	73	-6
COc1ccc(N2C(=O)[C@@H]3[C@H](C2=O)[C@H]2c4ccccc4C=CN2[C@@H]3C(C)=O)cc1	-22	5	23	i	9	-14&2	-15	14
CC1(C)CC2CC(C)(CN2C(=O)NC(=O)c2ccccc2)C1 (stereo not given)	2	4	-4	i	5	-1	-8	-1
COc1ccc(NC(=O)C2CCN(C(=O)C3CC(=O)N(c4ccc(C)cc4)C3)CC2)cc1 (stereo not given)	0	1	-12	i	15	-8	nt	-4
CCn1nc(C)cc1-c1n[nH]c(=S)n1N	6	0	-6	i	-1	nt	-15	nt
Cc1ccc(NC(=O)COc2ccc(Br)cc2C)cc1	1	-1	4	i	1	-14	0	-44
COCCN1C(=O)N[C@@H](c2ccccc2)C(C(C)=O)=C1C	nt	nt	-4	nt	3	nt	-20	-50
COc1cccc(Cn2cc(/C=N/NC(=O)c3cc(O)cc(O)c3)c3ccccc32)c1	-2	-15	-1	i	9	-1	7	3
COc1ccc(NC(=O)CN2C(=O)CSc3ccc(S(=O)(=O)N4CCCC4)cc32)cc1OC	4	4	nt	i	nt	-7	-3	3
CC(OC(=O)C1=COCCO1)C(=O)NC(C)c1ccc(Cl)cc1Cl (stereo not given)	1	0	nt	i	nt	-7	nt	nt
COc1ccccc1C(=O)NCC(=O)OCc1nnc(-c2ccccc2)o1	-2	4	nt	nt	nt	-8	nt	-68
CCCCC(=O)NC1=NC(=O)C(C)(C)S1	-2	0	0	i	-7	-1	-4	nt
COc1ccc(NC(=O)CN2CCN(CC(=O)Nc3ccc(F)cc3)CC2)cc1Cl	3	-4	-6	i	-6	-9	-3	18
O=C(O)c1ccc(N2C(=O)CSC2=S)cc1	14	20	nt	i	nt	nt	-9	9
Nc1c(C(=O)NCC2CCCO2)sc(=S)n1-c1ccccc1 (stereo not given)	6	3	9	nt	9	-15	-8	nt
O=C1N(c2ccccc2)C(c2ccccc2)N2CCCN12 (stereo not given)	1	3	-1	i	1	nt	-3	-2
C/C(=N\NC(=O)C1COc2ccccc2O1)c1ccccn1 (stereo not given)	0	1	12	i	8	3	5	7
CCNC(=O)Nc1nc2ccccc2s1	0	3	6	i	-23	nt	-4	-87
Cc1ccc(C(=O)Nc2nc(-c3ccc4c(c3)OCCO4)cs2)o1	2	1	nt	nt	nt	-26	nt	-5
CC(=O)c1cc(-c2ccccc2)n(CCC(=O)NC(C)(C)C)c1C	2	-1	0	i	4	-24	-14	nt
CC(NC(=O)c1noc2c1CCCCC2)c1ccccc1 (stereo not given)	4	1	-1	i	-4	-21	-4	6
O=C(NCc1ccc(Cl)cc1)C1CCC(=O)N(C2CCCCCC2)C1 (stereo not given)	2	1	-9	nt	-1	-6	-1	-9
NS(=O)(=O)c1ccc(CCNC(=S)NC2CCCCC2)cc1	-1	-4	-5	i	-13	nt	30	-17
CCOCCCNC(=O)/C(C#N)=C/c1ccc(C)o1	3	-7	11	i	0	nt	2	9
Cc1cccn2c(=O)nc(SCC(=O)NCc3ccccc3)nc12	-1	-2	nt	i	nt	nt	-4	nt
COc1cccc(N2CCN(C(=O)c3ccc(=O)oc3)CC2C)c1 (stereo not given)	-7	1	-5	i	13	-7	-12	nt
O=C(Nc1ccc(N2CCOCC2)cc1)Nc1ccc(Cl)c(Cl)c1	6	-5	-1	i	5	nt	68	10
Nc1nn(S(=O)(=O)c2ccccc2)cc1-c1ccc([N+](=O)[O-])cc1	0	-4	3	i	-7	-1	-7	-13
OCCN(CCO)CC(O)COc1ccc2c(c1)OCO2 (stereo not given)	1	0	0	i	4	-2	-4	nt
CC(CNC(=O)Cn1cnc2c(NCc3ccccc3)ncnc21)c1ccccc1 (stereo not given)	0	-2	nt	nt	nt	-6	nt	-9
O=C(CSc1nnc2ncccn12)N1CCCCCC1	-1	4	-20	i	-6	nt	-12	-33
CN(C)c1ccc(NC(=O)c2ccc3nsnc3c2)cc1	-3	1	3	i	13	-11	nt	-85
O=C(NC1CCCC1)C(c1ccc(F)cc1)N(C(=O)Cc1cccs1)c1ccc2c(c1)OCCO2 (stereo not given)	-5	-2	9	i	-9	-10	-1	30
COc1ccccc1CNC(=O)N1CCN(c2ccccc2C)CC1	0	-2	4	i	6	-11	14	18
COc1cc(/C=N/NC(=S)Nc2cccc(Cl)c2C)ccc1OCC(=O)N1CC(C)OC(C)C1 (stereo not given)	-5	-8	-12	i	-6	-26	nt	9
COc1cc(C)c(Cl)cc1S(=O)(=O)NCC1CCCO1 (stereo not given)	4	6	-7	i	-7	15	-16	nt
O=C(Nc1ccc2c(c1)OCCO2)N1CCN(c2ccc(F)cc2)CC1	12	-5	-2	i	-1	-15	-11	28
COc1ccc(C2CC(C(F)(F)F)n3nc(C(=O)O)c(Cl)c3N2)cc1OC (stereo not given)	-2	2	-9	i	-1	335*	5	nt
Cc1ccc(-c2nn(CCC(=O)O)cc2/C=C\C(=O)c2ccc(Br)cc2)cc1	-4	-11	0	i	3	nt	61	-3
COc1ccc(N2C(=O)CC(Sc3nnc(-c4ccccc4)o3)C2=O)cc1 (stereo not given)	9	7	-5	i	1	-9	18	-44
CCOC(=O)c1cccc(NC(=O)CN(c2ccc(C)cc2)S(=O)(=O)c2c(C)noc2C)c1	-5	-11	5	i	-8	-21	28	-117
Nc1ccc2c(Cl)cc(Cl)cc2c1	-3	1	nt	nt	nt	-3	nt	-3

(more compounds)
mol	MT1-MMP act inh	MT1-MMP act inh RFP	eIF4H FP inh	Rce1 inhib	PABP polyA inh	Yeast UUG start	CSC inhib	Env fusion inh
CCN1C[C@@H]2[C@@H]3C(=O)N(C)C(=O)[C@@H]3[C@](CC)(C1=O)N2C(=O)c1ccc(C(C)(C)C)cc1	2	7	nt	nt	nt	-4	nt	8
CCN(C(=O)COc1ccccc1[N+](=O)[O-])C1CCS(=O)(=O)C1 (stereo not given)	0	8	-8	i	5	1	-10	2
Cc1nc(C)c(C(=O)Nc2ccc(Oc3ccccc3)cc2)o1	-5	-21	-2	i	3	-15	3	35
CC(C)Sc1nc2ccccc2n2cnnc12	3	-1	6	i	2	-2	-13	-6
O=C(CCCOc1ccccc1)Nc1ccc(Cl)c(S(=O)(=O)N2CCOCC2)c1	-3	-23	nt	nt	nt	-11	9	32
COC(=O)[C@H](Cc1ccccc1)NC(=O)N1Cc2ccccc2C[C@H]1C(=O)OC	-10	-3	-13	i	-4	0	-13	9
Cc1ccc(C(=O)Nc2nc(=O)n(C(=O)c3ccccc3C)s2)cc1	7	-3	-8	i	10	-13	-12	nt
COc1ccccc1C(=O)O/N=C(\c1ccccc1)c1ccncc1	1	3	1	i	-18	nt	2	8
Cc1cc(=O)[nH]c2c1cnn2C(C)c1ccccc1 (stereo not given)	2	3	-8	i	-4	3	-3	-5
CC1(C)N=C(N)NC(Nc2ccccc2Cl)=N1	-2	-1	2	i	3	-9	-11	8
O=C(Nc1ccccc1Br)C1CC(=O)N(c2ccc3c(c2)OCCO3)C1 (stereo not given)	2	0	nt	i	nt	-43	-11	nt
O=C(C(Cl)Cl)N1CCN(Cc2ccc3c(c2)OCO3)CC1	1	-2	6	i	6	-14	-10	-1
C=CCn1c(=O)/c(=C\c2ccccn2)s/c1=C(/C#N)C(=O)NCC1CCCO1 (stereo not given)	-4	-1	?	i	32	nt	-7	-5
Cc1ccc(C(=O)N2CCN(CCNC(=O)C(=O)NCc3ccc(Cl)cc3)CC2)cc1	0	-10	nt	i	nt	-13	-10	4
COc1ccc(OCC(=O)Nc2cccc(NC(=O)COc3ccc(OC)cc3)n2)cc1	0	-5	-11	i	15	-13	0	-240
CC1(C)Cc2c(sc(NC(=O)c3ccccc3)c2C(=O)O)CO1	-3	2	-1	i	5	nt	4	-6
COc1ccccc1-n1c(SCC(=O)O)nc2c(sc(=S)n2-c2ccccc2C)c1=O	-2	2	8	i	12	-18	-4	4
CCOc1cc2[nH]c(=O)n(CCCC(=O)NCc3ccco3)c(=O)c2cc1OCC	4	-2	-4	i	-3	-14	-4	28
CCOc1cc(NC(=O)c2ccccn2)c(OCC)cc1NC(=O)c1cccc(C)c1	2	2	0	i	-3	-17	-6	20

Full records, quoted from the list:
Profile of COc1ccccc1-n1c(SCC(=O)O)nc2c(sc(=S)n2-c2ccccc2C)c1=O = MT1-MMP act inh = -2; MT1-MMP act inh RFP = 2; eIF4H FP inh = 8; Rce1 inhib = i; PABP polyA inh = 12; Yeast UUG start = -18; CSC inhib = -4; Env fusion inh = 4
Profile of CCOc1cc(NC(=O)c2ccccn2)c(OCC)cc1NC(=O)c1cccc(C)c1 = MT1-MMP act inh = 2; MT1-MMP act inh RFP = 2; eIF4H FP inh = 0; Rce1 inhib = i; PABP polyA inh = -3; Yeast UUG start = -17; CSC inhib = -6; Env fusion inh = 20

From PubChem
